# Ecoli growth – inhibitors of Escherichia coli growth; OD600 absorbance (test concentration not listed); 330,000 tested, 0.21% active; OD600, 23 h; hits give low values;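 active means OD600 absorbance below the run mean of sample wells minus 3.6 SD, in any replicate, cut at about 0.56 in these data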;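 further: stock transfer was 300 nL into about 60 µL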
# HNF4A DNA FP – change in binding of human HNF4 alpha to DNA. P41235. HNF4a-FITC DNA binding, fluorescence polarization, 1 h. activity change, % at 10 µM. 360,000 tested, 0.3% active. AID 1224865; in the data active means activity change above about 30%, passing the limit was not always enough;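 further: controls were the assay level and a saturating level of protein; the project sought stronger binding though the title names inhibitors; some compounds called inactive have numbers as strong as hits; positive values seem to mean higher polarization but the record does not say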
# FGF22 binding – shifts melting point of recombinant human FGF22 | Q9HCT0 | recombinant FGF22 thermal shift, SYPRO orange fluorescence; percent of sucrose octasulfate shift, DMSO zero | calls only at 9.99 µM | 340,000 tested, 1.5% active | AID 651658;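 active means melting point raised past a set limit in the mean and every replicate; three in four hits are not shown here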
# Target sequence (Q9HCT0 whole entry, looked up): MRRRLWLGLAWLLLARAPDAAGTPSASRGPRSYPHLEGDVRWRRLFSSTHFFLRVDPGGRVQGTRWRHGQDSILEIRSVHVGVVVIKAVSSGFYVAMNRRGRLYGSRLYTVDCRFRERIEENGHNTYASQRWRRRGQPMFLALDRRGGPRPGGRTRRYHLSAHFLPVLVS
# UCH37 DUB inh – inhibitors of human deubiquitinating enzyme UCH37; inhibition, % (test concentration not listed); purified proteasome/UCH37, Ub-AMC cleavage fluorescence; 330,000 tested, 0.33% active;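 active means mean of two replicates above 20%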;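 further: 0% = compound-free wells with enzyme and 100% = wells lacking proteasome; stock transfer was 100 nL into about 20 µL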
# Target sequence (Q9Y5K5 whole entry, looked up): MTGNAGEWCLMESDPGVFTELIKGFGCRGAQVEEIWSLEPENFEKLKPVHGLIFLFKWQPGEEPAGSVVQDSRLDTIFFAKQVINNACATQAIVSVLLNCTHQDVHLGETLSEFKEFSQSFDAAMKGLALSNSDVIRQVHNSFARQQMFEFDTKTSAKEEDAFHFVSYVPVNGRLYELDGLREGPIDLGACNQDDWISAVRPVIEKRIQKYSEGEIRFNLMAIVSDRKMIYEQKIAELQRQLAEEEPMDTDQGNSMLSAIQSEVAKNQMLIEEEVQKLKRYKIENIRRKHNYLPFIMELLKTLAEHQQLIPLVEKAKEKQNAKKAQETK
#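 Signal – fluorescence, ex 355 nm, em 460 nm · System – Proteasome-bound UCH37 · Input – 0.15 nM proteasome as dispensed · Timing – 30 min preincubation with enzyme, 25 min cleavage at room temperature · Read-out basis – percent inhibition of cleavage signal versus uninhibited and no-proteasome wells · Medium – Tris-HCl pH 7.4 with ATP-MgCl2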
# LANA-H2B inh – blocks KSHV LANA binding to histone H2A/H2B. 320,000 tested, 0.6% active. inhibition, % (test concentration not listed). cell-free LANA-H2A/H2B peptide, fluorescence polarization. Q9QR71; in the data active means inhibition mostly above about 10%, no sharp cut-off; inactive means mostly below about 6.7%;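 further: stock transfer was 7.5 nL into about 10 µL; 0% = median of vehicle wells and 100% = median of positive control wells; one replicate is shown; the record names a cut of 25% in any replicate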
# B2AR ag – agonists of human beta-2 adrenergic receptor inducing internalization; P07550; Am2.2-beta2AR cells, FAP receptor internalization, flow cytometry; reference of the scale not given here; 340,000 tested, 0.43% active; response, % (concentration not given with the values);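 active means response above a set limit, near 3 SD of response in nonfluorescent compounds, cut at about 42% in these data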;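 further: stock transfer was 100 nL into about 11 µL; a reference agonist was the positive control; negative values mostly stem from fluorescent compounds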
# ALR inh – human ALR oxidase inhibition via reduced H2O2; P55789; purified ALR, DTT oxidation, H2O2 HRP-luminol luminescence; inhibition, % (no concentration beside the values); 290,000 tested, 3.8% active; AID 485317;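 active means mean and each replicate at 75% or more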;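 further: stock transfer was 7.5 nL into about 7.5 µL; 0% = neutral wells and 100% = wells with inactivated enzyme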
# Target sequence (P55789 whole entry, looked up): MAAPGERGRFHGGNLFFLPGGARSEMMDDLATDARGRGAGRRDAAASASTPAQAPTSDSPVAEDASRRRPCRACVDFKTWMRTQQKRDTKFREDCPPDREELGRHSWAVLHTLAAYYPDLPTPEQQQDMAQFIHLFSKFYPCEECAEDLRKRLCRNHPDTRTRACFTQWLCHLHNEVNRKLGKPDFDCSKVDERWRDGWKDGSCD
# Starred values were filed as active, the others as inactive; i = inactive; / = not tested or not shown. Not all compounds are listed; rates above refer to the full screens.
# Each structure is followed by: Ecoli growth	LANA-H2B inh	ALR inh	FGF22 binding	HNF4A DNA FP	UCH37 DUB inh	B2AR ag
- O=C(Cc1ccccc1)NCC(=O)Nc1ccccc1Br
  0.69	-2.6	-3	i	-1.3	-0.5	-10
- O=C(CCc1nc2ccccc2c(=O)[nH]1)OCc1ccc(Cl)cc1Cl
  0.69	0.3	5	/	5.0	0.8	-4
- O=C(O)C1CCC(=O)N1Cc1ccccc1Cl (centres undefined)
  0.81	3.2	2	/	-1.9	3.6	-14
- CC(=O)Nc1ccc(NC(=O)C2CC(=O)N(C(C)C)C2)cc1 (centres undefined)
  0.66	-3.6	/	i	1.7	0.3	-6
- COc1cccc(NC(=O)CSc2nnc3ccc(-c4ccncc4)nn23)c1
  0.66	/	/	i	0.3	0.2	-2
- OC[C@H]1O[C@@H]2O[C@H]3[C@H](O)[C@@H](O)[C@@H](O[C@H]4[C@H](O)[C@@H](O)[C@@H](O[C@H]5[C@H](O)[C@@H](O)[C@@H](O[C@H]6[C@H](O)[C@@H](O)[C@@H](O[C@H]7[C@H](O)[C@@H](O)[C@@H](O[C@H]1[C@H](O)[C@H]2O)O[C@@H]7CO)O[C@@H]6CO)O[C@@H]5CO)O[C@@H]4CO)O[C@@H]3CO
  /	-2.1	-6	i	/	-0.6	/
- COc1cc2c(cc1OC)-c1cc(OCc3ccccc3Cl)nc(=O)n1CC2
  0.71	-0.4	-3	/	-1.1	i	-2
- O=C(Cn1cnnn1)OCC(=O)c1ccc(Cl)s1
  0.78	0.9	0	/	3.1	-6.7	12
- COc1ccc(CNC(=O)COC(=O)c2ccc(S(=O)(=O)N3CCOCC3)cc2)cc1
  0.71	-0.4	-3	i	-0.2	0.3	9
- c1cnc(-c2noc(CN3CCN(C4CCCC4)CC3)n2)cn1
  0.68	0.7	-4	i	3.1	1.3	0
- CC(Sc1n[nH]c(-c2cccs2)n1)C(=O)Nc1ccc(C(N)=O)cc1 (centres undefined)
  0.69	-2.5	2	i	-2.0	5.8	2
- CC1CCN(C(=O)CSc2nc3ccccc3[nH]2)CC1
  0.67	-0.8	-13	i	6.2	3.9	-14
- CC(C(C(=O)N1CCCCC1)N1CCCCC1)N1CCCCC1 (centres undefined)
  0.68	/	/	i	-0.7	-1.0	0
- Cc1ccc2c(c1)C1CN(C)CCC1N2C(=O)Nc1ccc(Cl)cc1 (centres undefined)
  0.6	/	/	/	-2.1	2.0	1
- CCCCCc1ccnc(CC(=O)c2ccc(OC)cc2)c1
  0.66	/	/	i	-1.1	0.4	-3
- CCO/C(C)=N/n1c2nc3ccccc3nc2c2c(=O)n(C3CCCC3)c(C)nc21
  /	0.6	21	/	8.9	/	1
- COc1ccccc1N1CCN(Cc2ccc(OC)c(OC)c2OC)CC1
  0.72	0.3	16	/	2.6	-0.2	0
- Cc1ccccc1C(=O)Nc1ccc2c(c1)C(=O)NC2=O
  0.69	1.4	/	i	4.1	-109	-1
- NCC1CCC(C(=O)Oc2ccc(CCC(=O)O)cc2)CC1 (centres undefined)
  0.72	-3.5	-5	i	1.9	3.4	-1
- CN1CCN(C(=O)c2cccc(-c3cc(O)c4ncccc4c3)c2)CC1
  0.65	6.3	2	i	-1.6	4.4	-12
- CCOC(=O)N1CCN(C/C(Cl)=C/c2ccccc2)CC1
  0.65	-2.7	/	i	0.3	1.2	-7
- Cc1ccc(CNCc2ccco2)cc1
  0.67	2.2	-2	i	1.3	3.9	-5
- O=C(CCN1C(=O)C2CCCCC2C1=O)NNC(=O)c1cccc(Cl)c1 (centres undefined)
  0.56	-2.0	-7	/	4.0	2.5	-2
- O=C(Nc1cccc2ccccc12)N1CCN(c2ncccn2)CC1
  0.68	-1.2	-15	i	1.8	1.4	5
- O=C(CNc1cccc(S(=O)(=O)N2CCCCC2)c1)Nc1cccc(F)c1
  0.67	2.3	-1	i	-0.8	1.3	-7
- COc1ccc(-c2sc3ccc(N4CCOCC4)cc3c2C#Cc2ccsc2)cc1
  0.76	-2.5	1	i	-2.2	-48	7
- COc1ccc(CN2CC(=O)N(c3ccc(C)c(C)c3)C2=S)cc1OC
  0.71	-4.0	-7	i	-1.6	3.2	-4
- COc1ccc(CCNCC(O)COc2c(C)cccc2C)cc1OC (centres undefined)
  0.64	2.3	-8	i	2.4	2.5	-2
- CCCc1cc2c(cc1NC(=O)Cc1ccccc1)OCO2
  0.71	/	/	i	1.1	1.4	0
- N#Cc1ccccc1S(=O)(=O)Nc1ccc2c(c1)C(=O)OC2
  0.68	2.4	-6	i	-0.6	3.8	4
- Cc1cc(C)cc(NC(=S)N2CCN(C(=O)c3ccco3)CC2)c1
  0.72	0.2	-1	i	0.5	0.7	11
- COc1cc(NC(=O)c2cc(C)nc3ccccc23)cc(OC)c1
  0.7	-0.8	0	i	3.8	1.5	0
- CCc1nnc(NC(=O)[C@@H](NC(=O)c2ccc(C(C)(C)C)cc2)C(C)C)s1
  0.64	-3.6	-19	i	-2.5	0.6	-9
- CC(C)(C)c1cc(CCC(=O)NCc2ccncc2)cc(C(C)(C)C)c1O
  0.65	-1.0	7	/	-2.3	2.2	6
- COc1cc2c(cc1OC)CN(S(=O)(=O)c1ccc3c(c1)OCCO3)CC2
  0.71	1.5	-19	/	-4.7	0.1	10
- Cc1nn(C)c(C)c1NC(=O)COc1ccccc1C#N
  0.72	0.3	-11	i	1.6	0.4	7
- O=C(Cc1ccc(Cl)cc1)NCC(=O)N1CCCCC1
  0.71	3.3	-8	i	-0.7	5.0	-6
- COc1ccc(OC)c(S(=O)(=O)Nc2ccccc2C(=O)N2CCCCC2)c1
  0.69	/	/	i	-2.4	-2.1	7
- CCn1c(CC(=O)Nc2ccccc2Cl)nnc1SCC(=O)NC1CCCC1
  0.68	0.1	-4	i	-0.2	-0.3	2
- C=CCc1cccc(/C=N/c2ncn[nH]2)c1O
  /	0.9	/	/	-2.0	/	3
- CC1(C)CC(NC(=O)CCc2ccccc2)CC(C)(C)N1
  0.7	1.3	-13	/	-1.5	8.1	5
- Cc1sc(NC(=O)c2ccco2)c(C(c2ccncc2)N2CCOCC2)c1C (centres undefined)
  0.69	-4.8	8	/	-0.8	7.1	0
- O=C(Nc1cccc(C(=O)Nc2cccc(C(F)(F)F)c2)c1)c1ccc(=O)[nH]c1
  0.66	0.7	3	i	2.5	-0.5	-3
- O=c1cc(CN2CCN(Cc3ccc(F)cc3)C(CCO)C2)[nH]c2ccccc12 (centres undefined)
  0.73	-0.8	/	i	-5.5	-1.4	-1
- CCC1=[N+](CC(=O)c2ccc(Br)cc2)CCn2c(C)ccc21
  0.66	-3.3	/	i	5.7	-16	6
- COC(c1ccccc1)c1c(-c2ccccc2)nn(C)c1Cl (centres undefined)
  0.7	4.3	-14	/	-0.8	3.5	-9
- Brc1ccc(-n2cnc(-c3ccccc3)c2)cc1
  0.64	3.9	2	i	1.1	0.1	-7
- Cc1ccc(OCCCC(=O)Nc2ccc3c(c2)OCO3)cc1
  0.71	-0.2	0	i	3.0	3.1	2
- Cc1c(C)n(Cc2ccccc2)c2ccc(C(=O)NCCCN3CCOCC3)cc12
  0.68	-0.4	0	i	0.7	2.2	11
- O=C(CSCC(=O)N1CCCCC1)Nc1nc(-c2ccc(Cl)s2)cs1
  0.74	-1.8	8	i	-3.3	1.4	-10
- CCCCn1c(SCC(=O)Nc2cc(C)on2)nnc1-c1ccncc1
  0.66	2.1	/	i	4.9	1.4	32
- O=C(NCc1nc(-c2ccc(C(F)(F)F)cc2)no1)Nc1cc(Cl)cc(Cl)c1
  0.63	-2.1	1	i	1.6	2.7	11
- Cn1ccc(C(=O)NC(=S)Nc2ccc([N+](=O)[O-])cc2O)n1
  0.69	-1.2	15	i	13	12	15
- COc1ccc(NC(=O)COC(=O)C2CCN(S(=O)(=O)c3ccccc3)CC2)cc1Cl
  0.66	-1.7	-4	i	-0.2	1.6	-7
- CN(CC1CCOCC1)C(=O)CC1C(=O)NCCN1CC(c1ccccc1)c1ccccc1 (centres undefined)
  0.7	3.2	-5	i	6.9	-8.4	3
- CCCNC(=O)c1c(NC(=O)C2COc3ccccc3O2)sc2c1CCCC2 (centres undefined)
  0.71	4.1	-23	/	-2.3	2.6	4
- CC(=O)Nc1ccc(NC(=O)COC(=O)c2ccc([N+](=O)[O-])o2)cc1
  /	-2.6	-14	i	0.5	/	-2
- Cc1cc(Cl)ccc1OCC(=O)Nc1ccc(CN2CCOCC2)cc1
  0.71	/	/	i	0.0	3.3	-4
- C=CCOc1ccc(/C=C\c2nc(O)c([N+](=O)[O-])c(=O)[nH]2)cc1OC
  0.63	-2.4	67	/	-4.8	17	3
- Cc1ccc(/C=C/C(=O)c2ccccc(=O)c2O)c(C)c1
  0.67	-2.9	38	i	-0.8	0.9	15

# (cont.)
# Each structure is followed by: Ecoli growth	LANA-H2B inh	ALR inh	FGF22 binding	HNF4A DNA FP	UCH37 DUB inh	B2AR ag
- CCn1c(SCC(=O)N2CCCCC2C)nc2ccsc2c1=O (centres undefined)
  0.69	-5.4	-1	/	-1.9	0.5	-4
- COC(=O)[C@@]1(C)[C@H]2C(=O)N(C)C(=O)[C@H]2[C@H]2CN=C(SCc3ccc(C#N)cc3)N21
  0.65	/	/	i	2.5	1.2	4
- O=C(CN1CCN(CCO)CC1)Nc1ccccc1
  0.73	-0.9	-4	/	-0.3	2.7	8
- O=C(O)CCCCNS(=O)(=O)c1ccc(Cl)c(C(F)(F)F)c1
  0.69	1.2	-6	/	2.9	3.4	-1
- COc1ccccc1CN=C1Nc2ccccc2CS1
  0.69	-3.0	3	i	-0.1	2.5	4
- CCOC(=O)c1ccccc1NC(=O)c1ccc(Cl)c(S(=O)(=O)N2CCOCC2)c1
  0.69	-2.1	-9	/	-0.3	0.5	2
- O=C(CCc1ccccc1Cl)Nc1ccc(S(=O)(=O)N2CCOCC2)cc1
  0.6	-4.5	2	i	1.3	0.3	6
- O=C(Oc1ccc(F)cc1C(=O)/C=C/c1cccs1)c1cccc([N+](=O)[O-])c1
  0.79	2.1	21	/	1.1	4.7	10
- CCOC(=O)c1c(NC(=O)CNC2CCCCC2)sc(C)c1C
  0.67	4.0	3	i	-1.9	1.6	-24
- CCOC(=O)c1c(C)c(C(=O)NC(C)COC)c(C)n1C (centres undefined)
  0.71	-1.2	-19	/	-1.2	0.6	3
- Cc1ccc2c(c1)N(C(=O)CCC(=O)NCC(C)c1ccccc1)CC(C)O2 (centres undefined)
  0.7	4.5	-4	i	-2.7	4.3	-9
- CCOC(=O)C1(Cc2cccc(OC)c2)CCN(Cc2cnc(SC)nc2)CC1
  0.68	1.8	-6	i	-3.2	5.3	0
- COc1ccccc1CNCC(O)(c1ccc(Cl)cc1)c1ccc(Cl)cc1
  0.65	-5.1	0	/	2.4	2.2	40
- CC(C)[C@H](NC(=O)c1ccco1)C(=O)OCC(=O)c1ccc(Br)s1
  0.67	0.9	2	i	9.1	3.6	-3
- CCC1(c2ccccc2)C(=O)N=C(N)N(C#N)C1=O (centres undefined)
  0.67	/	/	i	3.8	0.0	-6
- CCCN1C(=O)COc2ccc(C(=O)c3ccccc3C(=O)O)cc21
  0.62	1.9	0	i	2.2	-1.0	9
- CCCCOC(=O)C(C)Oc1ccc(=O)n(-c2ccccc2)n1 (centres undefined)
  0.77	-1.8	/	i	2.5	-1.4	4

# Full records from above. Values in the order: Ecoli growth	LANA-H2B inh	ALR inh	FGF22 binding	HNF4A DNA FP	UCH37 DUB inh	B2AR ag
# Results for COC(=O)[C@@]1(C)[C@H]2C(=O)N(C)C(=O)[C@H]2[C@H]2CN=C(SCc3ccc(C#N)cc3)N21 = 0.65	/	/	i	2.5	1.2	4
# Results for CCOC(=O)C1(Cc2cccc(OC)c2)CCN(Cc2cnc(SC)nc2)CC1 = 0.68	1.8	-6	i	-3.2	5.3	0
# Results for CCOC(=O)c1c(C)c(C(=O)NC(C)COC)c(C)n1C (centres undefined) = 0.71	-1.2	-19	/	-1.2	0.6	3

# Screens as filed in PubChem.
